# Vif TR-FRET: inhibitors of Vif binding to APOBEC3G peptide, primary screen, biochemical, TR-FRET, GST-Vif 1-94, biotin-A3G peptide, dose response retest (AID 1117319); Virion infectivity factor (Human immunodeficiency virus type 1 group M subtype B (isolate …; TR-FRET GST-Vif / biotin-A3G peptide binding; higher % means a stronger effect; test concentration not given here; strong numbers were not always called active; inhibition, %; hits with a dose series show IC50 in µM; hit rate 0.57% among 260,000;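 active means above the screen mean plus three standard deviations and confirmed in dose response; inconclusive means results disagree or hit not tested in dose response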;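 further: Vif residues 1-94 fused to GST binding biotinylated APOBEC3G peptide 110-148; 0% = full assay without inhibitor and 100% = GST in place of GST-Vif; retest series ran down from 100 µM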
# Calb FLC: C. albicans growth inhibition with fluconazole, primary screen, CaCi-2 strain, Alamar Blue fluorescence; C. albicans CaCi-2 (fluconazole-resistant clinical isolate) + fluconazole, 48 h; growth inhibition, % (concentration not given with the values); hit rate 0.57% among 300,000;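 active means most replicates above 75%; inconclusive means exactly half above 75%; inactive means most below 75%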;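 further: all wells also contain fluconazole at 8 µg/ml as a sub-toxic cotreatment; 0% = median of DMSO wells and 100% = median of geldanamycin control wells; wells of about 8 µL received 7.5 nL stock; the first replicate is given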
# RanGTP-Impb inh: inhibitors of RanGTP-importin-beta interaction, primary screen, biochemical, FRET, CFP-Ran, YFP-importin-beta, homogeneous. inhibition, % (no concentration beside the values). cell-free CFP-Ran/YFP-importin-beta FRET ratio. hit rate 1.1% among 300,000;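 active means most replicates above 15%; inconclusive means exactly half above 15%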;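 further: 0% = DMSO wells and 100% = Ran loaded with GDP instead of GTP; wells of about 40 µL received 100 nL stock; the first replicate is given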
# Beta apoptosis: inhibitors of cytokine-induced beta cell apoptosis, primary screen, luminescence. protection from apoptosis, % (concentration not given with the values). hit rate 0.8% among 300,000. AID 435005, 2010. INS-1E cytokine-induced death, ATP luminescence, 48 h; percent of positive-control rescue, neutral wells zero;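 active means all replicates at 75% or more, or half of them and the mean; inconclusive means half reach 75% but not the mean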;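 further: 0% = cytokine-treated negative control wells and 100% = positive control rescue; higher means more ATP so stronger rescue from cytokine killing; wells of about 40 µL received 100 nL stock; the first replicate is given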
# Bfl-1 A1 inh: caspase 3/7 activation in MEF A1-2A-BIM cells, primary screen, A1 inhibitor project, cell-based, luminescence, HTS; AID 2462, 2010; Caspase-Glo 3/7 luminescence, 3 h; percent of clofoctol response, vehicle zero; hit rate 0.066% among 330,000; caspase activation, % (concentration not given with the values);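 active means over half of replicate activation scores above 10%, or exactly half above 10 with the replicate mean above 10; inconclusive means replicate mean below 10 yet half the replicates above 10; inactive means over half of replicates below 10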;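 further: wells of about 30 µL received 50 nL stock; many hits fall short of the cut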
# T cruzi inh: inhibitors of intracellular T. cruzi growth, primary screen, luminescence, NIH3T3 host cells; AID 1885, 2009; hit rate 1.4% among 300,000; T. cruzi beta-gal in NIH3T3, 90 h; inhibition, % (test concentration not listed);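 active means mean inhibition across valid replicates above about 55%, limit read from the data; inconclusive means mean below that limit but half or more replicates reach it; inactive means mean below it, under half of replicates reach it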;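 further: signal also drops with host cell toxicity which is not excluded here; 0% = plate median of DMSO wells and 100% = zero luminescence signal; higher percent means less beta-gal luminescence so fewer parasites; stock transfer was 50 nL into about 50 µL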
# LANA-H2A inh: blockers of LANA interaction with H2A/H2B – biochemical, FP readout, HTS, primary screen | cell-free LANA-H2A/H2B peptide, fluorescence polarization | inhibition, % (test concentration not listed) | hit rate 0.6% among 320,000 | AID 2629, 2010; in the data active means inhibition mostly above about 10%, no sharp cut-off; inactive means mostly below about 6.7%;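 further: stock transfer was 7.5 nL into about 10 µL; 0% = median of vehicle wells and 100% = median of positive control wells; one replicate is shown; the record names a cut of 25% in any replicate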
# Target sequence (Q9QR71 whole entry, looked up): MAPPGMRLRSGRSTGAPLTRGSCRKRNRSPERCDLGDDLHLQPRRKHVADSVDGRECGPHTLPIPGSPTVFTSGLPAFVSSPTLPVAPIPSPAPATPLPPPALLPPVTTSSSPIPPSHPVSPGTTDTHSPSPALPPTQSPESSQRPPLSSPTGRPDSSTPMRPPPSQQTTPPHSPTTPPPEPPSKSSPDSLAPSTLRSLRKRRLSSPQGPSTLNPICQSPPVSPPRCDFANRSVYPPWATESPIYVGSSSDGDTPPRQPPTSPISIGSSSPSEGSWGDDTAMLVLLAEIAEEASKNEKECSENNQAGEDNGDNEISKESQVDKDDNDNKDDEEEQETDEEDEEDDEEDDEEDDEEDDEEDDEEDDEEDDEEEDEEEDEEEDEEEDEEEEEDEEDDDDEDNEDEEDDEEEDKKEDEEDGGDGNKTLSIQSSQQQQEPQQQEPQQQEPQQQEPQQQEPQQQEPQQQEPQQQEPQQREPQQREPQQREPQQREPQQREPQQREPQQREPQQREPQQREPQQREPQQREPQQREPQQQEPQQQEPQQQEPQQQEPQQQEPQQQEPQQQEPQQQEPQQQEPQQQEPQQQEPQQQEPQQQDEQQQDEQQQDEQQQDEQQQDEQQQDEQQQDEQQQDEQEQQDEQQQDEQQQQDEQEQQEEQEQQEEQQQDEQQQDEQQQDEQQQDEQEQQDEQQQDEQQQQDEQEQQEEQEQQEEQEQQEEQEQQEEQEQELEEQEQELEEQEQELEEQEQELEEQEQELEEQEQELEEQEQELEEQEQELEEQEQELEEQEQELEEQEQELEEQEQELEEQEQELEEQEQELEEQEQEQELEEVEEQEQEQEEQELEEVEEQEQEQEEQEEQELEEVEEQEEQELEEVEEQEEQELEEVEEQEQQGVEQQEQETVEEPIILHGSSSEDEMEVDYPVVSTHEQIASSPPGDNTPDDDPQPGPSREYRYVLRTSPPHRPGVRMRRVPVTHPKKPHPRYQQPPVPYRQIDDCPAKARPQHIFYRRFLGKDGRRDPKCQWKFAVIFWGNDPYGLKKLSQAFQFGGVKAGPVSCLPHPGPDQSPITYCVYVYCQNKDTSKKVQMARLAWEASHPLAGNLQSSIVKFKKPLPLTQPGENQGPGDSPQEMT
# AF4-AF9 inh: inhibitors of AF4 peptide binding to AF9, primary screen, biochemical, AlphaScreen, biotin-AF4 peptide, FLAG-AF9, single point; Protein AF-9 (Homo sapiens), P42568; inhibition, % at 10 µM; hit rate 0.47% among 350,000;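 active means every replicate reaching a set inhibition limit, whatever the replicate mean, cut at about 25% in these data; inconclusive means mean inhibition reaches that limit but some replicates miss it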;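 further: 0% = plate neutral control median and 100% = total signal loss; the record names both 10 and 1 µM as test concentration; the first replicate is given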
# Starred values were filed as active, the others as inactive; ? = inconclusive; · = not tested or not shown.
SMILES,Vif TR-FRET,Calb FLC,RanGTP-Impb inh,Beta apoptosis,Bfl-1 A1 inh,T cruzi inh,LANA-H2A inh,AF4-AF9 inh
COC(=O)c1ccc(/C=N/OCC(=O)NC2CCCCCCC2)cc1,-4%,-4,-2.1,0,-1.6,-12,2.0,·
CN(C)C(=O)c1ccc(NC(=O)c2cncc(Br)c2)cc1,11%,-7,-1.0,-4,0.4,-4,-0.2,·
Oc1c(CN2CCN(c3ccc(F)cc3)CC2)cc(Cl)c2cccnc12,9%,112*,25*,111*,-0.4,60*,-0.4,41*
COc1cccc(NC(=O)COC(=O)CCOc2ccccc2OC)c1,8%,0,4.4,-1,-1.0,-10,-3.0,-3.3
O=C(CN1C(=O)C2C3c4ccccc4C(c4ccccc43)C2C1=O)N1CCOCC1 (stereo not drawn),25%,4,-3.6,2,-0.2,5,-2.5,·
CC1CN(C(=O)c2ccccc2NS(=O)(=O)c2ccc(Cl)cc2)CC(C)O1 (stereo not drawn),2%,·,·,-2,1.2,·,-3.2,-2.2
Cc1ccccc1N=CC=C1OC(C)(C)C(C)(C)O1,0%,3,4.4,2,0.1,10,·,6.7
CCOC(=O)N1CCN(C(=O)CCc2nc3sc4c(c3c(=O)[nH]2)CCCC4)CC1,·,-13,0.7,-3,0.5,1,-1.4,-7.5
CC1(C)CC(NS(=O)(=O)OCC(Cl)(Cl)Cl)c2cc(C#N)ccc2O1 (stereo not drawn),·,7,0.7,·,-0.6,0,1.3,-2.7
Cc1cc(C(=O)NC2CCCCCC2)c2ccccc2n1,7%,·,·,-1,0.9,·,-0.8,-1.5
CC(=O)Nc1nc2ccc(C(=O)NC3CCCCC3)cc2s1,-5%,2,·,8,0.1,·,2.2,·
CC(=O)C1=C(O)C(=O)N(c2ccc(Br)cc2)C1c1ccc(Br)cc1 (stereo not drawn),·,9,1.8,3,0.2,-10,0.4,-2.3
CN(Cc1cn(C)c2ccccc12)C(=S)Nc1cc(F)cc(F)c1,1%,4,3.4,0,0.4,-16,-1.9,·
CC(=O)NCCC(=O)NCC1(N(C)Cc2ccccc2)Cc2ccccc2C1,·,6,-1.5,-3,1.5,-14,1.4,1.4
COc1ccccc1NC(=S)N1CCNC(=O)C1CC(=O)Nc1cccc(C)c1 (stereo not drawn),·,6,7.2,0,0.1,-3,0.1,4.4
Cc1ccc(-c2cc(-c3ccccc3)nc(Cl)n2)cc1,-8%,6,0.9,5,0.5,11,1.3,·
Cc1cc(C)cc(OC2CCCCC2NS(=O)(=O)c2ccccc2)c1 (stereo not drawn),·,-5,5.3,-2,0.7,4,5.2,-0.1
O=C(c1cccc(F)c1)N1CCN(S(=O)(=O)c2ccc(C(F)(F)F)cc2)CC1,-3%,39,-1.3,6,0.0,-11,3.7,·
COCCn1nnnc1C(c1cc2cc(OC)c(OC)cc2[nH]c1=O)N1CCN(c2ccc(O)cc2)CC1 (stereo not drawn),4.8µM*,-1,-2.2,0,-0.2,7,3.6,1.3
O=C(c1ccc(Cn2cc(Cl)c([N+](=O)[O-])n2)cc1)N1CCN(Cc2ccccc2)CC1,13%,0,-1.4,-3,0.4,24,6.2,3.1
O=C1NC(=S)SC1=C1CCCC1,6.2µM*,29,4.9,-13,-0.3,8,0.5,·
CCC(=O)c1ccc(OCC(O)Cn2nc(C)cc2C)cc1 (stereo not drawn),1%,-6,-4.5,-1,0.7,5,4.4,1.9
CN1CCN(CCCNC(=O)Nc2ccc([N+](=O)[O-])cc2)CC1,1%,-1,-4.3,8,0.1,-3,0.5,1.4
COc1ccc(C2Nc3ccccc3C(=O)N2Cc2ccccc2)cc1COc1ccccn1 (stereo not drawn),1%,1,3.0,1,0.3,14,3.3,·
COc1ccc(Cl)cc1-c1nc(-c2ccncc2)no1,-2%,-4,-0.7,4,-0.3,13,-4.3,·
Cc1nc2nc(C)c(CCC(=O)NCCC3=CCCCC3)c(C)n2n1,1%,-3,7.2,1,0.4,1,1.1,·
Cc1cc(=O)n(-c2ccc(O)cc2)[nH]1,4%,6,2.5,10,0.2,1,-1.4,·
COc1cccc(NC(=O)c2nn(C34CC5CC(CC(C5)C3)C4)cc2[N+](=O)[O-])c1,-1%,-9,-0.4,-3,0.5,17,-1.8,·
CC(NC(=O)COC(=O)c1nc(Cl)ccc1Cl)c1ccccc1 (stereo not drawn),-6%,·,·,-5,-0.9,·,-0.2,3.3
COc1ccc2ccccc2c1/C=N/NC(=O)c1cccc(C)c1,·,-7,4.2,0,0.5,-27,1.3,1.2
Cc1cc(Br)ccc1OCC(=O)NNC(=O)CCc1ccccc1,·,-3,0.7,-8,0.4,-9,1.0,2.6
CCN(C(=O)COC(=O)c1cc(Cl)ccc1OC)c1c(N)n(Cc2ccccc2)c(=O)[nH]c1=O,-8%,·,·,-2,0.4,·,39*,0.1
Cc1ccccc1Oc1nc(-c2ccccn2)nc2ccccc12,·,-2,-1.4,88*,-0.1,16,-0.9,-1.8
Cc1cc(NC(=O)c2noc3c2CCCCC3)no1,0%,?,-1.3,1,-3.0,2,-1.8,3.0
CCOC(=O)C(NS(=O)(=O)c1ccc(Br)cc1)C(C)C (stereo not drawn),-2%,-21,1.9,-10,0.8,4,-0.8,-3.9
COc1ccc(CCNC(=O)C2CC(c3cc(C(F)(F)F)cc(C(F)(F)F)c3)=NO2)cc1 (stereo not drawn),·,-11,9.3,-2,-0.3,-18,-4.2,-0.6
O=[N+]([O-])c1cccnc1S(=O)(=O)c1ccccc1,·,92*,5.1,65,?,68*,-0.4,0.9
O=C(CCc1nnc(COc2ccccc2)o1)NCc1ccc(Cl)s1,2%,-8,-2.0,0,-0.8,-3,3.7,-1.0
FC(F)(F)c1ccc(N2CCN(c3ncnc4c3nnn4Cc3ccccc3Cl)CC2)cc1,·,1,-2.9,8,0.4,51,0.7,·
NC(=O)c1cccn1Cc1cccc(Cl)c1,3%,-22,-0.5,·,·,11,·,·
CCc1ccc(N(C(=O)c2ccoc2C)C(C(=O)NC2CCCC2)c2ccc(OC)cc2)cc1 (stereo not drawn),4%,-3,0.3,46,0.0,20,-0.2,·
COc1ccc(CCNC(=O)COC(=O)/C=C/c2cc(OC)ccc2OC)cc1,·,·,·,-5,-0.5,·,-1.8,-1.7
CC(C)Cc1nnc(NC(=O)CCC(=O)N2CCN(S(=O)(=O)c3ccccc3)CC2)s1,7%,?,?,-10,0.4,-4,2.2,·
COc1ccc(C2C(C(C)=O)=C(O)C(=O)N2CCCn2ccnc2)cc1 (stereo not drawn),1%,2,5.0,-8,0.7,2,1.4,·
O=C(Cc1cccs1)Nc1nc(-c2ccc(F)cc2F)cs1,-2%,-48,-0.4,5,-0.7,-1,-0.4,·
COc1ccc(C2(CCN=Cc3ccc(N(C)C)cc3)CCOC(C)(C)C2)cc1 (stereo not drawn),27%,-7,2.2,-2,-0.3,16,-4.0,3.1
Cc1ccc(NC(=O)CSc2nnc(-c3ccco3)n2N)cc1F,0%,-4,1.7,-4,0.6,-3,-0.6,-6.5
COc1ccc(C(=O)Nc2nc(C)c(C(C)=O)s2)cc1S(=O)(=O)N1CCOCC1,-69%,·,·,2,0.6,·,-1.0,0.5
O=C(c1nn(Cc2ccccc2)c(=O)c2ccccc12)N1CCN(c2ccccn2)CC1,1%,16,-3.0,·,-0.4,19,-1.2,·
COc1ccc(S(=O)(=O)NCC2CCCN(Cc3cccnc3)C2)cc1 (stereo not drawn),-2%,-2,-2.3,-2,-0.3,-4,-6.8,3.8

# The closing 6 records of the part before come first, to join the parts.
SMILES,Vif TR-FRET,Calb FLC,RanGTP-Impb inh,Beta apoptosis,Bfl-1 A1 inh,T cruzi inh,LANA-H2A inh,AF4-AF9 inh
O=C(Cc1cccs1)Nc1nc(-c2ccc(F)cc2F)cs1,-2%,-48,-0.4,5,-0.7,-1,-0.4,·
COc1ccc(C2(CCN=Cc3ccc(N(C)C)cc3)CCOC(C)(C)C2)cc1 (stereo not drawn),27%,-7,2.2,-2,-0.3,16,-4.0,3.1
Cc1ccc(NC(=O)CSc2nnc(-c3ccco3)n2N)cc1F,0%,-4,1.7,-4,0.6,-3,-0.6,-6.5
COc1ccc(C(=O)Nc2nc(C)c(C(C)=O)s2)cc1S(=O)(=O)N1CCOCC1,-69%,·,·,2,0.6,·,-1.0,0.5
O=C(c1nn(Cc2ccccc2)c(=O)c2ccccc12)N1CCN(c2ccccn2)CC1,1%,16,-3.0,·,-0.4,19,-1.2,·
COc1ccc(S(=O)(=O)NCC2CCCN(Cc3cccnc3)C2)cc1 (stereo not drawn),-2%,-2,-2.3,-2,-0.3,-4,-6.8,3.8
CCCCOc1ccc(S(=O)(=O)N2CCN(c3ccc(N4CCN(CC)CC4)nn3)CC2)cc1,-5%,0,0.4,·,-0.4,30,4.0,4.5
Cc1cccc(-n2ncc3c2CCCC3NC(=O)CCN2Cc3ccccc3C2=O)c1C (stereo not drawn),-2%,0,2.9,2,-0.4,-13,-17,-0.2
CCOC(=O)c1c(NC(=O)CN(CC)CC)sc2c1CCN(C(=O)OCC)C2,0%,-2,-2.3,10,1.2,31,-9.0,-6.6
COc1c(C)cc(C(=O)C2CCCN(C(=O)c3cccc(F)c3)C2)cc1C (stereo not drawn),-3%,26,-2.3,-2,0.0,8,-2.6,0.6
CCc1ccc(NCc2nc3ccccc3c(=O)[nH]2)cc1,4%,-5,0.9,-6,0.4,-19,2.3,·
N#Cc1nc(-c2ccccc2F)oc1NCc1ccccc1,3%,3,0.9,-2,-0.2,3,-4.1,0.5

# A few values from above.
# Vif TR-FRET with `CCCCOc1ccc(S(=O)(=O)N2CCN(c3ccc(N4CCN(CC)CC4)nn3)CC2)cc1` stands at -5%
# T cruzi inh with `CCc1ccc(NCc2nc3ccccc3c(=O)[nH]2)cc1` stands at -19
# T cruzi inh with `Cc1cccc(-n2ncc3c2CCCC3NC(=O)CCN2Cc3ccccc3C2=O)c1C` (stereo not drawn) stands at -13
# AF4-AF9 inh with `N#Cc1nc(-c2ccccc2F)oc1NCc1ccccc1` stands at 0.5
# AF4-AF9 inh with `CCOC(=O)c1c(NC(=O)CN(CC)CC)sc2c1CCN(C(=O)OCC)C2` stands at -6.6

# Bioassay records from PubChem BioAssay.
